# TRPML1 inh = qHTS for Inhibitors of the Human Mucolipin Transient Receptor Potential 1 (TRPML1); Mucolipin-1 (Homo sapiens), Q9GZU1; TRPML1-inducible cells, Ca2+ dye fluorescence, FDSS; hits give low values; inhibition of EC80 agonist-evoked calcium signal; activity change, negative = inhibition, % (concentration not given with the values); actives 0.02% (n = 390,000); in the data active means activity change below about -50%; inconclusive means about -30% to -50%; inactive means above about -30%;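 note: stimulus is agonist 54-4 at its EC80 concentration; % is set by controls: 0 for no effect and ±100 for the full control effect; compound concentration not given in the record; the text of the record puts the active cut at -80%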
#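 Tet-induced TRPML1-DL cells loaded with Ca8 no-wash calcium dye were read kinetically on FDSS. Compound addition was followed by EC80 agonist 54-4 (4 uM final); inhibition was read over 110 s.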
# TRPV1 PAM = HTS Assay for Compounds that Act as Potentiators of the Vanilloid Receptor 1; Transient receptor potential cation channel subfamily V member 1 (Homo sapiens), Q8NER1; TRPV1-expressing cells, Fluo-8 calcium influx, capsaicin EC20 potentiation; host cell line not named in the record; control for the full effect not named in the record; potentiation, % at 8.33 µM; actives 0.02% (n = 320,000); active means potentiation above 80%; inconclusive means 30% to 80%; inactive means below 30%; note: 0% is about no effect
# Target sequence (Q8NER1 whole entry, looked up): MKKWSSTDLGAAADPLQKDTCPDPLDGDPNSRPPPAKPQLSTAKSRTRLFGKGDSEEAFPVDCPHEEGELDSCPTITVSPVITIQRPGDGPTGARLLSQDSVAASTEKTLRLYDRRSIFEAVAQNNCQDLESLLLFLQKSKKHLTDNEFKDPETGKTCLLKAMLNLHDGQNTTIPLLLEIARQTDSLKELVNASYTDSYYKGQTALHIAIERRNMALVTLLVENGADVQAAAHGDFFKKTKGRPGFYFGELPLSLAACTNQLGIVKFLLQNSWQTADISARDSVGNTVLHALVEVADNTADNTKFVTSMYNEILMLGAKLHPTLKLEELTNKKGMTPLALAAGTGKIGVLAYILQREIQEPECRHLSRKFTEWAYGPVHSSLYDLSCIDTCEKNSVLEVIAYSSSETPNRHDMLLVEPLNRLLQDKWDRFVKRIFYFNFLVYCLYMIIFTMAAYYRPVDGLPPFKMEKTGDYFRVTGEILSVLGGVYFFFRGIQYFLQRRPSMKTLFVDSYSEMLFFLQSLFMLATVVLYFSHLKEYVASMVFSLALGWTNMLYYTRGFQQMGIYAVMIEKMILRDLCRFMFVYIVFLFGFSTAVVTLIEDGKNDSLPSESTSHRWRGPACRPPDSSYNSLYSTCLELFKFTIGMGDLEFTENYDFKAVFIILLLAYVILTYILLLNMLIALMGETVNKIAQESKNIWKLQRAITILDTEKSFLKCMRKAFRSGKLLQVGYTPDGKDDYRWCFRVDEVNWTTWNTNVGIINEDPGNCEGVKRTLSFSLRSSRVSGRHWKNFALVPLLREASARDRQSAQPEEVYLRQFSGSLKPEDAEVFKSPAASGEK
#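 Cells expressing TRPV1 were dye-loaded with Fluo-8 and read kinetically: 10 s baseline, 3 min after compound (agonist portion), then 2 min after EC20 capsaicin (allosteric enhancer portion). Calcium-bound dye fluorescence at 480/520 nm.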
# TRPML1 ag = qHTS for Agonists of the Human Mucolipin Transient Receptor Potential 1 (TRPML1) | Mucolipin-1 (Homo sapiens), Q9GZU1 | TRPML1-expressing cells, Ca2+ dye fluorescence, FDSS; host cell line not named in the record; reference of the full effect not given here | activation, % (concentration not given with the values) | actives 0.12% (n = 410,000); in the data active = activation above about 50%; inconclusive = about 30% to 50%; inactive = below about 30%; note: 0% is about no effect; the text of the record puts the active cut at 80%
#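 Calcium fluorescence on an FDSS kinetic reader gave the read-out. Tet-induced TRPML1-DL cells were plated overnight, dye-loaded (Ca8 with quencher, 45-90 min, room temperature, dark), then read 110 s after compound addition, and again 110 s after 4uM final 54-4 (EC80).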
# ClpP mod = qHTS Assay for Activators of ClpP | ATP-dependent Clp protease proteolytic subunit (Bacillus subtilis (strain 168)), P80244 | purified B. subtilis ClpP, FRET peptide cleavage, 20 min | Potency, µM (titrated, usually from 57.5 µM), inactives show at the top dose activity change, negative = active | actives 1.9% (n = 340,000); active = well fitted falling curve with a large enough effect; inconclusive = small, poorly fitted or top-dose-only effect; inactive = no such curve, though single readings can be large or run the other way; note: potency is the fitted concentration of half-maximal effect; the source files actives as falling curves though it sought activators and does not explain the sign; nearly all actives have a fitted effect of over 65% in size; many hits overshoot -100%
# Target sequence (P80244 whole entry, looked up): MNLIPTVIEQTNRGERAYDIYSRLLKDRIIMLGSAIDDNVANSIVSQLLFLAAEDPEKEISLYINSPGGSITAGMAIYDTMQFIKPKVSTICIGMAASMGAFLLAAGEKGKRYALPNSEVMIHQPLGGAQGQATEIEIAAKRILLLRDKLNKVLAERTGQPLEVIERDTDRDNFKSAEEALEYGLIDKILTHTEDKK
#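 Buffer: 100 mM Tris/HCl pH8, 100 mM KCl, 0.05% low protease BSA, 2.5% glycerol, 0.01% Tween-20. ClpP 10 microg/mL final; 20 min RT; delta FRET normalized to ADEP and DMSO controls.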
# Menin-MLL FL inh = qHTS Assay for Inhibitors Targeting the Menin-MLL Interaction in MLL Related Leukemias: Competition With Fluorescein Labeled MLL-derived Peptide. Fluorescence polarization, fluorescein-MLL peptide displacement from menin. FP activity change, % at 61.4 µM. 290,000 tested, under 10 active. AID 1766, 2009; inconclusive = falling polarisation curve, or a change in total fluorescence; inactive = total fluorescence flat and polarisation flat or rising; no compound was filed as active; the % refers to the polarisation; negative = inhibition;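 note: % of control where 0% means no effect; inhibitors lower the polarisation; unlabelled MLL peptide was the positive control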
# Sfp PPTase inh = qHTS Assay for Inhibitors of Bacillus subtilis Sfp phosphopantetheinyl transferase (PPTase); 4'-phosphopantetheinyl transferase ffp (Bacillus subtilis), Q9F4F7; Biochemical Sfp PPTase activity, qHTS; Potency, µM, for the others: max response, negative = inhibition, most hits filed as inhibitors; actives 3.5% (n = 310,000); AID 1490, 2009; active = well fitted inhibition curve with a large enough effect; inconclusive = small, poorly fitted or top-dose-only effect, or another doubt; inactive = no such curve, though single readings can be large or run the other way;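 note: the enzyme is Sfp with the accession as filed and its product quenches rhodamine fluorescence; potency is the fitted concentration of half-maximal effect; 0% = enzyme reaction without inhibitor and -100% = no enzyme wells; top concentration of the series not given in the record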
#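 After 15 min at room temperature with compound, 15 nM Sfp received 5 uM rhodamine-CoA plus 12.5 uM BHQ-2-ybbR (50 mM Hepes pH 7.6, 10 mM MgCl2). Rate came from the fluorescence difference over 30 min, ex 525/em 598 nm.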
# PINK1 modulator = A Quantitative High throughput Screen to Identify Chemical Modulators of PINK1 Expression; PINK1 immunofluorescence, high-content cytometry, 24 h; Potency, µM (doses to about 76.6 µM), inactives show top-dose activation (PINK1 increase), usual class: activators; actives 0.2% (n = 410,000); active = well fitted activation curve with a large enough effect; inconclusive = small, poorly fitted or top-dose-only effect; inactive = flat fitted curve, though single readings scatter; cell line not stated here;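 note: potency is the fitted concentration of half-maximal effect; % of control where 0% means no effect; nearly all actives have a fitted effect of over 65% in size; a mitochondrial uncoupler was the plate control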
#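 Readout is PINK1 immunofluorescence, quantified alongside mitochondrial, cell and nuclear markers by laser-scanning microplate cytometry. Cells from a stable line were exposed to compound titrations (5 concentrations) for 24 hours, with CCCP controls.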
# An asterisk follows results filed as active; ? = inconclusive; nt = not tested or not shown; [ ] = another dose, or the depositor's remark.
cpd	Compound	TRPML1 inh	TRPV1 PAM	TRPML1 ag	ClpP mod	Menin-MLL FL inh	Sfp PPTase inh	PINK1 modulator
1	CC(O)(CS(=O)(=O)Cc1ccccc1)C(=O)Nc1ccc(C(F)(F)F)cc1 (configuration not stated)	25	-5	0.5	-1.4%	3.2	5%	-4.6%[38.3 µM]
2	Cc1ccc(S(=O)(=O)c2c(C)nn(C(C)(C)C)c2OC(=O)CC(C)C)cc1	15	-12	0.2	nt	-0.8	-1%	7.6%
3	O=C(NCCC(=O)N1CCN(S(=O)(=O)c2ccccc2Cl)CC1)Nc1ccccc1	32	22	0.6	0.4%	nt	nt	1.3%
4	CCCNS(=O)(=O)c1ccc(OCC(=O)N2CCc3ccccc3C2)c(C)c1	2	9	-0.7	nt	0.7	7%	1.0%
5	COC(=O)CN1C(=O)CSc2ccc(S(=O)(=O)Nc3cccc(C)c3C)cc21	-7	nt	2.3	-0.9%	nt	nt	2.8%
6	O=C(c1ccc(Cl)c(S(=O)(=O)NCc2ccccc2)c1)N1CCN(c2ccccn2)CC1	1	25	1.2	-0.7%	-1.1	-2%	8.5%[38.3 µM]
7	COc1ccc(OC)c(CNn2c(-c3ccccc3F)nc3ccccc3c2=O)c1	41	6	2.6	nt	-4.0	10%	-0.4%
8	CC(=O)N/N=C(\C)CCc1ccccc1	21	4	0.4	1.6%	4.3	4%	0.4%
9	Cc1ccc2nc(-c3ccc(Cl)c(NC(=O)c4ccc5c(c4)OCCO5)c3)oc2c1	-1	nt	1.4	?	nt	nt	1.6%
10	CCCCNC(=O)c1ccc2nc(CC)c(N(C)Cc3cccs3)n2c1	-5	nt	-0.2	-5.3%	nt	nt	0.8%
11	COc1ccccc1N1CCN(C2CCCN(Cc3cc(F)cc(F)c3)C2)CC1 (configuration not stated)	-23	3	1.5	-2.5%	1.4	17%	3.9%
12	Cc1nc2nc(NCc3cccs3)nn2c(C)c1Cl	13	1	-0.8	13µM*	2.2	5%	1.6%[38.3 µM]
13	CC(C)n1c(SCC(=O)NC2CCCCC2)nnc1-c1ccco1	30	7	1.4	nt	0.7	6%	1.4%
14	CN1CCN(C(=O)CSc2nnc(COc3ccc(Cl)cc3)o2)CC1	4	7	0.4	nt	-9.6	8%	0.1%
15	O=P1(O)C=C(c2ccccc2)OC(c2ccccc2)=C1	1	5	-0.1	-2.0%	-2.3	-7%	4.3%
16	CCCCc1ccc(Nc2nc(N3CCOCC3)nc(N3CCOCC3)n2)cc1	-7	-5	-1.1	-1.6%	-1.3	-5%	3.9%
17	COc1ccc(S(=O)(=O)N2CCN(Cc3ccco3)CC2)cc1	19	11	3.5	nt	3.2	?	-0.9%
18	C/C(=N\NC(=O)CNc1cccc(C(F)(F)F)c1)c1cccs1	25	-8	0.2	nt	1.6	22%	12%
19	NC(=O)c1ccc(-n2nnnc2Oc2ccc(Br)cc2)cc1	8	7	-0.8	nt	8.2	-18%	0.0%
20	C/C(=N\NC(=O)c1c(Br)cnn1C)c1ccc(NC(=O)c2ccc(F)cc2)cc1	13	7	3.5	-1.5%	-1.4	8%	5.1%
21	Cc1cccc(NC(=O)c2ccc(Cl)c(NC(=O)c3ccncc3)c2)c1C	3	-2	-0.2	nt	-2.6	5%	-0.7%
22	O=C1C(Cl)=C(NCCN2CCCCC2)C(=O)c2ccccc21	-11	5	0.4	2.2%	-0.2	1%	-0.5%
23	O=C(Nc1ccc2c(c1)OCO2)Nc1ccc(Cl)cc1Cl	14	-5	-0.2	-0.6%	3.7	4%	nt
24	O=C(N=C1SCC(=O)N1c1ccccc1Cl)c1ccco1	27	21	-0.1	-0.2%	?	-4%	?
25	CC(C)=Nc1ccccc1C1COC(=O)C1=N (configuration not stated)	-12	5	-0.4	1.6%	-0.9	8%	4.4%
26	CN(Cc1ccccc1F)c1nc(-c2cccs2)nc2ccccc12	-13	8	2.4	nt	-1.7	-11%	-1.2%
27	COc1ccc(CCn2c(=O)[nH]c3cc(C(=O)NCCCN4CCOCC4)ccc3c2=O)cc1OC	38	-7	-0.1	-1.3%	5.1	-3%	1.7%
28	CCCN(C(=O)c1cc(S(=O)(=O)N2CCN(CC)CC2)ccc1Cl)C1CCS(=O)(=O)C1 (configuration not stated)	1	nt	1.6	1.7%	nt	nt	4.1%
29	CCOC(=O)C(C)n1cnc2c(nnn2-c2ccccc2)c1=O (configuration not stated)	-13	10	-0.2	0.4%	-1.2	10%	4.4%
30	CS(=O)(=O)N(CC(=O)Nc1ccc(F)c(F)c1)c1cccc([N+](=O)[O-])c1	26	-9	2.6	-0.9%	3.8	27%	2.0%
31	CCN(CCn1cccn1)C(=O)CCc1nnc(-c2ccccc2)o1	-2	0	0.0	-0.1%	5.4	1%	1.3%
32	Cc1ccccc1NC(=O)C1CCCN(S(=O)(=O)c2ccc(-n3cnnn3)cc2)C1 (configuration not stated)	26	8	0.3	nt	-2.5	21%	5.3%
33	CC(=O)c1cccc(OCC(=O)Nc2cccc(C(=O)Nc3c(C)n(C)n(-c4ccccc4)c3=O)c2)c1	-19	-3	0.5	4.2%	nt	nt	1.1%
34	Cc1cc(C)c(C#N)c(Sc2ccccc2N)n1	-3	1	-0.4	nt	1.6	-83%	0.6%
35	CN(C(=O)CSc1nc2c(c(=O)[nH]1)CCCC2)C1CCCCC1	5	4	2.6	3.3%	-0.4	2%	-2.2%[38.3 µM]
36	Oc1c(C(c2ccccc2)N2CCN(c3cccc(Cl)c3)CC2)sc2nc(-c3ccco3)nn12 (configuration not stated)	-11	nt	2.0	-0.5%	nt	nt	2.3%
37	Cc1ccc(N2C(=O)C(Cl)=C(NCc3ccccc3)C2=O)c(C)c1	35	-6	-0.4	-0.5%	3.5	11%	-0.6%
38	CSCCC(NS(=O)(=O)c1ccc(C)cc1)C(=O)NCCc1c[nH]c2ccccc12 (configuration not stated)	-7	-2	1.6	-1.9%	nt	7%	3.8%
39	CCCCNC(=O)C1(C)CCCCN1C(=O)c1c(Cl)cccc1Cl (configuration not stated)	nt	nt	-0.8	0.6%	nt	nt	-0.7%
40	Cc1ccc(C23CC4CC(CC(C(=O)OCC(=O)N(C)C)(C4)C2)C3)cc1	nt	-13	nt	-1.6%	-3.5	8%	-0.6%
41	CCN(CC(=O)NCc1ccc(Cl)cc1)C(=O)/C=C/c1ccco1	35	-15	-1.1	nt	4.1	-2%	0.5%
42	O=C(CSc1nnc(COc2ccc(Cl)cc2)o1)Nc1ccccc1	24	nt	-0.4	-0.9%	nt	nt	1.9%
43	CN1CC(=O)N2[C@H](c3ccc4c(c3)OCO4)c3[nH]c4ccccc4c3C[C@@H]2C1=O	35	-3	1.9	-0.1%	-0.4	1%	1.3%
44	CCc1nnc(NS(=O)(=O)c2ccc(NC(=O)c3ccccc3O)cc2)s1	5	19	0.9	nt	4.4	4%	2.7%
45	Cc1oc(-c2ccccc2F)nc1CS(=O)CC(=O)NCc1ccccc1 (configuration not stated)	-4	-4	-0.4	-8.2%	-3.6	4%	-0.1%
46	Cc1ccccc1-c1nc(CS(=O)(=O)CC(=O)NCc2ccco2)c(C)o1	15	27	-1.4	0.2%	0.0	11%	-0.4%
47	Cc1ccc(NC(=O)CCn2cccc2)cc1Cl	-29	0	0.5	-5.0%	4.8	-4%	-1.0%
48	ON1C2CCCCC2N(O)C1c1c(F)c(F)c(F)c(F)c1F (configuration not stated)	6	-6	-0.7	-1.1%	3.6	-9%	1.1%
49	c1ccc(CSc2ncnc3c2cnn3Cc2ccccc2)cc1	6	-17	1.9	-16%	-0.1	-8%	2.2%
50	CC(C)C[C@H]1CN([C@@H](Cc2ccccc2)CN2CCC[C@@H]2CN2C(=O)C(=O)NC[C@@H]2Cc2ccc(O)cc2)C(=O)C(=O)N1CCc1ccccc1	13	nt	-0.6	-0.1%	nt	nt	7.8%
51	Cc1ccccc1NC(=O)C1C2CCCC1C2c1ccccc1 (configuration not stated)	7	-27	-1.2	-0.4%	3.0	-1%	-1.1%
52	CC(C)c1ccc(S(=O)(=O)N2CCN(C(=O)c3cccc(F)c3)CC2)cc1	-18	0	1.4	1.2%	3.7	2%	2.7%
53	CN(C)c1ccc(/C=C2\C=Cc3cc([N+](=O)[O-])ccc32)cc1	nt	nt	1.0	1.3%	nt	nt	0.9%
54	Cc1csc(NC(=O)CSc2nnc(-c3ccccn3)n2-c2ccc(C)c(C)c2)n1	-5	-4	-0.1	-1.3%	4.4	-1%	0.2%
55	Cc1ccc2c(c1)c1c3n2CCN(C(=O)Cn2c(-c4ccccc4)noc2=O)C3CCC1 (configuration not stated)	12	9	0.6	-4.6%	-0.1	?	7.6%[38.3 µM]
56	CCC(c1nnnn1CCOC)N1CCN(c2nc3ccccc3s2)CC1 (configuration not stated)	-8	3	1.4	nt	-6.7	9%	1.0%
57	CCOC(=O)N1CCN(C(=O)c2cccc(S(=O)(=O)Nc3ccc(F)cc3)c2)CC1	-4	nt	1.0	-4.0%	nt	nt	2.0%
58	CCN(C)C1CN(Cc2cn(CCCC(=O)OC)nn2)S(=O)(=O)C1 (configuration not stated)	nt	nt	-0.4	0.6%	nt	nt	0.9%
59	O=C1CSC(c2ccccc2[N+](=O)[O-])N1c1ccccc1 (configuration not stated)	-11	-5	0.3	nt	0.6	11%	-0.9%
60	COc1cc(F)ccc1S(=O)(=O)N1CCN(c2ccccc2)CC1	nt	-5	nt	-2.4%	4.5	0%	-0.5%
61	S=C(Nc1ccc(Oc2ccccc2)cc1)N(CCCN1CCOCC1)Cc1ccccn1	-15	18	-0.9	nt	-0.2	-76%	1.0%

# Assay outcomes (PubChem)

# Rows were taken by chance, and some 4.4% of all compounds hit somewhere here.
